Screens deposited in PubChem by several laboratories.
PABP polyA inh – PABP-poly(A) binding inhibition. P11940. PABP-poly(A) RNA binding, fluorescence polarization. inhibition, % at 35 µM. 1% of 290,000 active. AID 2014;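 active means 50% or more with normal probe brightness, or confirmed in later tests; inconclusive means above 50% with abnormal brightness, or retests that disagree; inactive means below 50% or failed in later tests; about a fifth of its hits are not listed in these tables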;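 further: calls also rest on retests at 20 µM and on dose response follow-up; controls were probe without protein and protein plus probe with vehicle; some compounds called inactive have numbers as strong as hits; many hits fall short of the cut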
Target sequence (P11940 whole entry, looked up): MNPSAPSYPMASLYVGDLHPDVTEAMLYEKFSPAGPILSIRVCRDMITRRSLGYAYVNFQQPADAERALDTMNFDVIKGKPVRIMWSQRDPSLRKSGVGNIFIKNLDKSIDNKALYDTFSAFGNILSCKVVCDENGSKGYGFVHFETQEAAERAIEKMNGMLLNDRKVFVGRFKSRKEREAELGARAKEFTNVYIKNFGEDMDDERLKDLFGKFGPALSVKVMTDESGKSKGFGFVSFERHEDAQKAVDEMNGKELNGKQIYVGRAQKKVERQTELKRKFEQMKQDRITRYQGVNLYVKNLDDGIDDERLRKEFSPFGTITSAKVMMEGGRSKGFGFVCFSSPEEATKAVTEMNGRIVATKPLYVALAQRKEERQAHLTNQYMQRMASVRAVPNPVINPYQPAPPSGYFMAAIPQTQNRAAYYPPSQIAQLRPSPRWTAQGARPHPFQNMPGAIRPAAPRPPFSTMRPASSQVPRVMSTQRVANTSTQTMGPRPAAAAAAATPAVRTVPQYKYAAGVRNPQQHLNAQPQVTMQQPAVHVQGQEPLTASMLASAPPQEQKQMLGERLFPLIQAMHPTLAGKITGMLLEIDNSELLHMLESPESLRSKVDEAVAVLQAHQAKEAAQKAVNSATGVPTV
MT1-MMP act inh – inhibitors of human MT1-MMP activation | P50281 | HT1080 RFP-PRO-GFP cells, GFP/RFP ratio fluorescence, overnight; percent of plate control window, DMSO zero | GFP/RFP ratio change, % at 20 µM | 0.061% of 360,000 active;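 active means GFP/RFP ratio change of at least 30% with cell ATP level not reduced by more than half and red fluorescence within 50% of control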; further: strong numbers were not always called active
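Test system: HT1080 cells expressing an RFP-PRO-GFP fluorescent reporter construct / Compound dosing: single-point 20 µM compound, 1% DMSO / Schedule: cells overnight before dosing, compound overnight, 37 °C, 5% CO2 / Evaluation: GFP/RFP fluorescence ratio / Control set: DMSO and RFP-L50D-GFP cell wells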
HIV Env fusion – inhibitors of HIV Env-mediated cell fusion; HeLa-JRFL Env/CEM21 cell fusion, luciferase; inhibition, % at 12.3 µM; 1.1% of 360,000 active;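 active means mean replicate inhibition score of at least 50 and every replicate individually at or above 50; inconclusive means only one of the two criteria met; inactive means mean below 50 and not all replicates reaching 50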;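 further: 0% = plate neutral controls and 100% = maraviroc near 300 nM; one replicate is shown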
CSC inhib – blocks cancer stem cells. AID 2717. inhibition, % at 7.5 µM. 1.1% of 300,000 active. cancer stem cell-like cells viability, luminescence;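 active means mean at 75% or more and at least half the replicates too; inconclusive means mean and replicates disagree; tested in HMLE shEcad cells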;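 further: 0% = median of negative and 100% = median of positive control wells; the first replicate is given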
Rce1 inh – inhibitors of yeast Ras-converting enzyme. Q03530. yeast membranes, quenched prenylated peptide cleavage fluorescence. calls only. 0.27% of 290,000 active;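 active means fall in fluorescence gain of 50% or more versus controls, with final raw signal at or below 3038400; inconclusive means same 50% fall but final raw signal above 3038400; inactive means fall in fluorescence gain under 50%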;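 further: plate controls were neutral control wells for no effect and wells lacking membranes for full effect; tested at 10 µM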
Target sequence (Q03530 whole entry, looked up): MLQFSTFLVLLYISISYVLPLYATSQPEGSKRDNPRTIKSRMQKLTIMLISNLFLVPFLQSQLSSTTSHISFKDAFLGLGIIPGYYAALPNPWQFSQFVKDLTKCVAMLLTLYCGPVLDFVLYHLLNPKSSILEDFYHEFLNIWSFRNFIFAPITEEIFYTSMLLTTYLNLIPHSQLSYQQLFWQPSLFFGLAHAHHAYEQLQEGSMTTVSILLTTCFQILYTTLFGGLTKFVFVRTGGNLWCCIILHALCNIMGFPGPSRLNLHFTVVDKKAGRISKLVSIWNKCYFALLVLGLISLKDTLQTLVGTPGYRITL
UUG fidelity – alters start codon recognition fidelity in yeast. S. cerevisiae UUG-firefly luciferase reporter, luminescence/redox ratio. activity score, % at 18.7 µM. 0.13% of 350,000 active. AID 602363;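 active means replicate mean at a twofold rise or more, about +100% in these data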;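 further: firefly luciferase made from a UUG start codon reports start codon fidelity; reporter light over untreated wells divided by growth signal over untreated wells; some hits fall short of that in this replicate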
eIF4H FP inh – inhibitors of RNA binding by human eIF4H; inhibition, % at 35 µM; Q15056; eIF4H fluorescence polarization binding assay; 0.94% of 290,000 active; AID 2012;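 active means 50% or more with normal probe brightness, or confirmed in later tests; inconclusive means above 50% with abnormal brightness, or retests that disagree; inactive means below 50% or failed in later tests; about a fifth of its hits are not listed in these tables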;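 further: calls also rest on retests at 20 µM and on dose response follow-up; 0% = protein and probe with vehicle and 100% = probe without protein; strong numbers were not always called active; many hits fall short of the cut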
eIF4H FP inh retest – second read-out of eIF4H FP inh, no call of its own (marks repeat the call); inhibition, %; compound at 20 µM; confirmation average;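 mean of two retest wells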
PABP polyA inh retest – also measured in PABP polyA inh; calls as there; inhibition, %; compound at 20 µM; confirmation repeats;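 mean of two retest wells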
MT1-MMP act inh RFP – also measured in MT1-MMP act inh; calls as there; RFP signal change, %; measured here: RFP expression control read;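 0 = vehicle wells; hits needed this value within 50% of zero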
* hit, by the source's call; i = inactive; ? = inconclusive; / = no result given. These rows are one share of the data (hit frequency here may not be typical).

SMILES	PABP polyA inh	MT1-MMP act inh	MT1-MMP act inh RFP	HIV Env fusion	CSC inhib	Rce1 inh	UUG fidelity	eIF4H FP inh	others
COc1ccc(C(=O)Cn2c(NCCCO)nc3ccccc32)cc1OC	-5	-2	0	-16	-12	/	-3	3
CC(=O)OCCOCn1cnn2c(=O)c(Br)c(C)nc12	-3	-1	0	7	-8	i	-11	-7
Cn1c(CNC(=O)c2ccccc2F)cc2ccccc21	-6	-1	2	2	-2	i	-12	-10
COc1ccccc1CNC(=O)CSc1nc2c(oc3ccccc32)c(=O)n1CC1CCCO1 (centres undefined)	/	-4	-2	1	-2	i	-4	/
Cc1onc(-c2ccccc2)c1C(=O)NCCc1ccncc1	9	-8	-3	-8	-4	i	-17	2
Cc1ccc(NC(=O)COC(=O)c2cccnc2)cc1	2	-2	3	-6	-13	i	-19	-7
Cc1nccc(-c2cccc(NC(=O)c3ccccc3Cl)c2)n1	7	2	0	-11	-3	i	/	-6
Cc1cc(C)nc(NCC(O)COc2ccccc2C)n1 (centres undefined)	4	2	3	-18	-7	i	-4	-7
COc1ccc(CNC(=O)CCS(=O)(=O)Cc2ccc(C)cc2)c(OC)c1	?	1	-2	25	-11	i	/	-7
CC(C)c1cccc(-c2csc(C(O)c3cccc(Cl)c3)n2)c1 (centres undefined)	/	4	-4	-8	/	/	-15	/
Cc1ccc(S(=O)(=O)CCC(=O)N2CCN(c3ccc([N+](=O)[O-])cc3)CC2)cc1	-1	-1	-14	5	-7	i	-14	6
CC(=O)Nc1ccc(SCCCC(=O)c2ccccc2)cc1	1	0	0	-13	11	i	-9	-10
CCOc1nc2ccccc2cc1/C=C/C(=O)O	-9	-2	-3	-57	-7	i	15	5
CC1SCC(=O)N(CC(=O)NCCc2ccccc2)C1=O (centres undefined)	2	1	5	-4	6	i	/	3
CCOc1cc(N2CCOCC2)c(OCC)cc1NC(=O)Cn1cnc2c(=O)n(C)c(=O)n(C)c21	19	3	6	-5	0	i	/	2
COCCCNC(=O)CC[C@H]1O[C@@H](n2cnc3c(NC(=O)c4ccccc4)ncnc32)[C@H](O)[C@@H]1O	/	1	1	-14	/	/	-11	/
COC(=O)c1ccc2c(c1)NC1=C(C(=O)CC(C)(C)C1)C(c1ccncc1)N2 (centres undefined)	4	-4	3	/	7	i	-13	-6
COc1ccc(Cc2noc(CN3CCCC(C(=O)c4cccs4)C3)n2)cc1OC (centres undefined)	-4	0	-4	5	-1	/	/	0
COc1ccc(-c2c(C(C)=O)c(C)n(C)c2C)cc1	10	2	6	/	6	i	-9	7
Nc1ccccc1SCC(O)Cn1ccc2ccccc21 (centres undefined)	-6	5	-2	/	11	i	-10	-8

Fetched by compound from above:
SMILES	PABP polyA inh	MT1-MMP act inh	MT1-MMP act inh RFP	HIV Env fusion	CSC inhib	Rce1 inh	UUG fidelity	eIF4H FP inh	others
Cc1ccc(S(=O)(=O)CCC(=O)N2CCN(c3ccc([N+](=O)[O-])cc3)CC2)cc1	-1	-1	-14	5	-7	i	-14	6
COC(=O)c1ccc2c(c1)NC1=C(C(=O)CC(C)(C)C1)C(c1ccncc1)N2 (centres undefined)	4	-4	3	/	7	i	-13	-6
CC(=O)OCCOCn1cnn2c(=O)c(Br)c(C)nc12	-3	-1	0	7	-8	i	-11	-7

New compounds follow
SMILES	PABP polyA inh	MT1-MMP act inh	MT1-MMP act inh RFP	HIV Env fusion	CSC inhib	Rce1 inh	UUG fidelity	eIF4H FP inh	others
CCn1c(C)nc2cc(C(=O)NNC(=O)CCC3CCCCC3)ccc21	10	1	2	/	-4	i	/	8
COc1cccc(/C=N/NC(=O)CN2CC(c3ccccc3)CC2=O)c1OC (centres undefined)	6	-2	3	3	-7	/	/	4
COc1ccc(C2C(C(=O)N3CCC(C)CC3)c3ccccc3C(=O)N2C)cc1 (centres undefined)	-11	-1	-4	-84	0	i	-10	-4
C=CCNC(=O)c1cc(Cl)ccc1[N+](=O)[O-]	-1	1	5	/	-14	i	-9	-4
O=C(NNS(=O)(=O)c1ccc(Cl)cc1)NC1CCCCC1	5	-5	-1	/	-10	i	-5	0
CCCN(C(=O)COC(=O)CC1CCCCC1)c1c(N)n(Cc2ccccc2)c(=O)[nH]c1=O	/	-2	-1	9	-15	i	/	/
CC(C)(C)[C@H]1COC(=O)[C@@H](Cc2ccc(F)cc2)CC/C=C/C[C@@H](CC(=O)N[C@H](CO)Cc2ccccc2)C(=O)N1	/	7	-3	2	-17	/	15	/
O=C(Nc1cccc(-c2nc3ccccc3o2)c1)c1cccnc1	-1	1	-1	-3	8	i	/	-6
Cc1cccc(NC(=S)N2CCCCCC2)c1C	-8	-1	0	-4	0	i	-20	5
COc1cccc(NC(=O)CSC2=NN3CCCC(=O)N=C3S2)c1	-2	2	2	-5	-11	i	-2	-3
CCC(=O)OCC(=O)Nc1ccc([N+](=O)[O-])cc1OC	-4	-3	0	-8	22	i	/	1
O=C(Nc1ccc2nc(C3CC3)n(Cc3ccc(F)cc3)c(=O)c2c1)c1ccco1	-6	8	-4	/	29	i	-1	-8
Cc1ccc(-c2csc(NC(=O)C3CC(=O)N(Cc4ccco4)C3)n2)cc1 (centres undefined)	15	-1	-12	0	-14	i	6	-3
CSc1ncc2ncn(C3OC(CO)C(O)C3O)c2n1 (centres undefined)	8	3	4	-45	-20	i	-7	-9
O=c1[nH][nH]c(-c2ccccc2O)c1C(C[N+](=O)[O-])c1ccc(Cl)cc1Cl (centres undefined)	-2	1	5	/	8	i	62	4
CN(NC(=O)Nc1ccc(Cl)cc1)c1ncc(C(F)(F)F)cc1Cl	/	4	1	-82	25	i	2	/
COCCCNC(=O)C1CCC(CNS(=O)(=O)c2ccc(Cl)cc2)CC1 (centres undefined)	0	0	5	36	-10	i	-2	-2
COc1ccc(OC)c(NC(=O)CSc2nnc(C3CCCCC3)n2-c2ccccc2)c1	-1	0	-7	-84	-13	i	-9	6
COc1ccc(NS(=O)(=O)c2cccc(C(=O)N/N=C/c3cn(-c4ccccc4)nc3-c3ccc(OC)cc3)c2)cc1	-10	-1	-4	2	5	i	-2	-1
COc1cc(NC(=O)c2noc3c2CCCC3)c(OC)cc1Cl	4	-4	0	/	4	i	-9	-4
CCOC(=O)[C@@H](C)N(Cc1ccc(OC)cc1)S(=O)(=O)N(Cc1ccccc1)[C@H](C(=O)OC)C(C)C	/	-13	-27	92*	-1	/	-6	/
CCN(CC)S(=O)(=O)c1ccc2c(c1)c(=O)c(C(=O)NCCc1ccc(OC)c(OC)c1)cn2C	0	0	-1	23	/	i	-9	-1
CC(C)(C)C1=CC(=O)C(=O)C(C(C)(C)C)=C1	10	7	8	/	62	i	-9	-4
CC(c1ccccc1)N1C(=O)c2ccccc2C1(O)Cc1ccccc1 (centres undefined)	-6	-10	-5	-5	-11	i	/	-4
Cc1[nH]nc2c1C(c1cccc(OC(=O)N3CCOCC3)c1)C(C#N)=C(N)O2 (centres undefined)	-1	0	1	/	-10	i	7	-14
N#C/C(=N\Nc1ccc(Cl)cc1)C(N)=S	10	8	-30	-8	37	i	-22	0
Cc1ccccc1NC(=O)CN1C(=O)c2ccccc2C1=O	1	-4	2	-22	-6	i	-14	4
Cc1ccc(/C=N/NC(=O)CN2CCN(Cc3ccccc3)CC2)s1	-7	5	4	4	-2	i	-30	-8
COc1cccc2cc(-c3cc(=O)oc4cc(C)c(OCC(C)=O)cc34)oc12	9	0	-3	-7	13	i	-25	-2
O=C(CC(=O)N/N=C\c1c(Cl)cccc1Cl)NCc1ccccc1	-3	2	-2	-31	-2	i	-13	8
O=C(Nc1cccc(Cl)c1)c1ccc(=O)[nH]n1	13	2	2	-39	/	i	-7	6
CCOC(=O)N1CCN(c2nc(-c3cccs3)nc3ccccc23)CC1	-16	-1	1	6	26	i	-3	-16
Cc1nnc(C)n1/N=C/c1ccccc1	-2	3	6	/	-8	i	-14	-7
CC(=O)c1cccc(NC(=O)C=C(C)C)c1	12	1	0	-8	-6	i	-9	-2
O=C(CSc1nc2ccccc2c(=O)n1-c1ccccc1Cl)NCC1CCCO1 (centres undefined)	/	1	2	/	-2	/	0	/
CC(NC(=O)NNC(=O)c1ccncc1)(C(F)(F)F)C(F)(F)F	2	0	4	15	-10	/	/	-5
Cc1ccc(CNC(=O)C(=O)NCC2OCCN2C(=O)c2ccc(Cl)cc2)cc1 (centres undefined)	0	-3	-1	13	/	i	-5	-4
Cc1cc2oc(C(=O)Nc3ccc(S(=O)(=O)Nc4ncccn4)cc3)cc(=O)c2cc1Cl	4	3	4	8	3	i	-17	0
O=C(c1ccccc1)c1sc(N2CCCCCC2)nc1-c1ccccc1	-2	-3	-3	/	35	i	/	-3
CC1(C)CC(=O)C(C=Nc2cccnc2)=C(O)C1	1	2	7	-22	2	i	-6	12
CCOC(=O)Cc1csc(N/N=C/c2ccc(C(F)(F)F)cc2)n1	-2	2	4	10	0	i	/	1
COc1ccccc1/C=N/OCC(=O)NCc1ccc2c(c1)OCO2	2	6	9	/	-8	i	/	-1
CCOC(=O)C1CCCN(C(=O)C(C)(C)Oc2ccc(Cl)cc2)C1 (centres undefined)	-5	-1	1	-1	-15	/	/	-6
CC(=O)CSc1ncnc2sc3c(c12)CCC(C)C3 (centres undefined)	1	-2	-4	-28	23	i	/	-15
CCCOC(=O)NC(CC)COC(=O)Nc1cccc(C)c1C (centres undefined)	0	1	-6	/	-22	i	11	4
CC(C)c1nnc(NC(=O)c2ccc(S(=O)(=O)N3CCOCC3)cc2)s1	0	0	2	16	12	i	5	-13
CCc1cc(=O)n2[nH]c(C)c(-c3ccccc3OC)c2n1	-4	-6	-5	?	-5	i	-26	2
CCOC(=O)C1(CCCc2ccccc2)CCN(C(=O)CCn2cnnn2)CC1	-12	3	-1	-1	-3	i	-13	0
CC1Nc2ccccc2C(=O)N1NC(=O)c1ccc(Br)cc1 (centres undefined)	6	3	3	6	-9	i	/	4
Cc1ccc(N2C(=O)c3cccc4c(N5CCN(C)CC5)ccc(c34)C2=O)c2cccnc12	118	/	/	/	17	i	/	122	eIF4H FP inh retest=-3;PABP polyA inh retest=1
O=C1NC(=O)C2C1C(c1ccccc1)N1C3C(=O)NC(=O)C3C(c3ccccc3)N21 (centres undefined)	5	-3	4	-32	-6	i	-14	-6
Cc1ccccc1C(=O)N=c1c(C#N)cc2c(=O)n3cccc(C)c3nc2n1Cc1ccco1	53	/	/	/	-7	i	/	42	eIF4H FP inh retest=2;PABP polyA inh retest=9
O=C(/C=C/c1ccc2c(c1)OCO2)NCC1CCCO1 (centres undefined)	0	3	4	-22	-5	i	/	16
CCOc1ccc(N2CC(C(=O)NCCN3C(=O)S/C(=C\c4ccc(OC)c(OC)c4)C3=O)CC2=O)cc1 (centres undefined)	12	4	-4	15	8	i	/	-2
CN1C(=O)Cc2cc(S(=O)(=O)NCc3c(F)cccc3Cl)ccc21	8	-1	5	7	/	i	-19	-2
Cc1ccccc1OC(C)C(=O)NCCC1=CCCCC1 (centres undefined)	1	-4	-2	16	-1	i	-5	-8
Nc1c(Cl)nc(-c2ccccc2)nc1Cl	-2	1	2	-23	3	i	/	0
Cn1ncc2c(=O)n(/N=C/c3ccccc3)cnc21	3	-2	-2	0	-13	i	/	-8
O=C(COC(=O)CCCOc1ccc(Cl)cc1Cl)NCc1ccccc1	-5	1	3	/	-4	i	-28	-8
